StopGo RLuc – FMDV 2A StopGo reporter, Renilla signal. HEK cells with a luciferase reporter of 2A StopGo recoding. Potency, µM (titrated, usually from 57.5 µM), without a hit: at the highest dose signal change, negative = less light. 120,000 tested, 0.32% active. AID 1745857; active means well fitted falling curve with a large enough effect; inconclusive means small, poorly fitted or top-dose-only effect; inactive means no such curve, though single readings can be large or run the other way; further: nearly all actives have a fitted effect of over 55% in size; overnight with compound
2A firefly – FMDV 2A StopGo reporter, firefly signal. HEK cells with a luciferase reporter of 2A StopGo recoding. 120,000 tested, 0.23% active. Potency, µM (top dose mostly 57.5 µM), for the others: at the top dose signal change, negative = less light; active = well fitted falling curve with a large enough effect; inconclusive = small, poorly fitted or top-dose-only effect; inactive = no such curve, though single readings can be large or run the other way; further: nearly all actives have a fitted effect of over 60% in size; overnight with compound
Starred values were filed as active, the others as inactive; ? = inconclusive; & = joins results of further samples; [ ] = another dose, or the depositor's remark. On the % scale 0 is the no-effect control and ±100 the full control effect; potency means the concentration at half of the fitted maximal effect.

SMILES	StopGo RLuc	2A firefly
CCOc1ccc(NC(=O)c2cnn(-c3ccc(C)cc3)c2-n2cccc2)cc1	14%	14%
Cc1ccc2c(c1)NC(=O)c1cc(S(=O)(=O)N(C)c3ccc(Br)cc3)ccc1O2	-3%	-6%
Oc1c(Cl)cc(Cl)cc1Br	-5%	4%
Cc1ccc(C(=O)NC(Nc2ccc(Cl)cc2)C(Cl)(Cl)Cl)cc1 (configuration not stated)	?	?
Cc1ccc(NC(=O)C2CCCN(S(=O)(=O)c3cccc4cccnc34)C2)cc1Cl (configuration not stated)	-2%	-16%
NCc1ccc(CN2CCCCCCC2)cc1	-9%	-12%
Oc1cc(Cl)cc(Cl)c1	5%	22%
O=C(Nc1cccc(F)c1)N1CCN(Cc2ccc(Cl)s2)CC1	-13%	38%[activator]
Cc1ccc(C2CC(=O)C3=C(C2)OC(N)=C(C#N)C3c2ccc(Cl)c(Cl)c2)cc1 (configuration not stated)	10%	21%
Cc1nn(CCC(=O)Nc2ccc(Cl)cc2F)c(=O)c(C#N)c1C	5%	12%
COC(=O)c1ccc(OC(=O)c2ccc(SC)cc2OC)cc1	17%	176%[activator]
COc1ccc(Cl)cc1NC(=O)Cn1c(=O)cc(C(=O)N2CCCC2)c2ccccc21	151%[activator]	6%
COc1cc(COC(=O)c2c(OC)cccc2OC)ccc1OC(F)F	133%[activator]	17%
CC(C)Oc1ccc(CNC(=O)c2ccc(NC(=O)c3nsc4ccccc34)cc2)cc1	10%	-11%
Cc1ccc(Cl)cc1NC(=O)N[C@H](C)C(=O)O	0%	0%
Cc1nn(-c2nc3c(c(=O)[nH]c(=O)n3C)n2Cc2ccccc2Cl)c(C)c1C	4%	6%
Cc1ccccc1/C=C1\Oc2cc(OS(C)(=O)=O)ccc2C1=O	28%	0%
CN(C)C(=O)c1cccc(NCC(=O)NC(=O)NCc2ccccc2)c1	105%[activator]	35%
CCC(C)C(=O)Nc1cc(S(=O)(=O)N(CC)CC)ccc1N1CCOCC1 (configuration not stated)	10%	-13%
CC1(C)CC(=O)C2=C(C1)Nc1[nH]n(-c3ccccc3)c(=O)c1C2c1ccc(Br)cc1 (configuration not stated)	34%[activator]	0%
O=C(NCc1ccccn1)c1ccsc1	-12%	3%
CNC(=O)CCNC(=O)c1cc(-c2ccc(OC)cc2)nc2ccccc12	61%[activator]	73%[activator]
Cc1nc(-c2ccc(S(=O)(=O)NCc3ccccc3Cl)cc2)co1	144%[activator]	-7%
CC(C)(CNC(=O)c1ccccc1)CNC(=O)c1ccccc1	-3%	-7%
CCC(C)(C)C1CCC(=NNC(=S)Nc2ccccc2C(F)(F)F)CC1 (configuration not stated)	0%	0%
O=C(N=C(c1ccccc1)c1ccccc1)c1ccco1	-9%	0%
Cc1nnc(N2CCN(C(=O)NCCC(C)C)CC2)c2nn(-c3ccc(Cl)cc3)c(C)c12	-4%	-11%
CC(C)Cn1nc(C(=O)N2CCCC2c2ccc3c(c2)OCCCO3)c2ccccc2c1=O (configuration not stated)	-11%	-9%
CCOC(=O)c1sc(N2C(=O)c3oc4ccc(F)cc4c(=O)c3C2c2cccc(OC)c2)nc1C (configuration not stated)	-9%	33%[activator]
CCc1ccc(CNc2nc3nc(C)c(Cc4ccccc4)c(=O)n3[nH]2)cc1	-12%	-12%
C=CCc1ccccc1OCc1ccc(C(=O)O)cc1	7%	54%[activator]
O=C(CCn1nnc2ccccc21)OCC(=O)c1ccc(Cl)cc1	-2%	-3%
COc1ccc(NC(=O)c2ccc3c(c2)S(=O)(=O)N=C(C)N3CC(C)C)c(OC)c1	32%[activator]	-1%
Cc1csc(CNC(=O)c2cnccn2)n1	-3%	-2%
Cc1cc2oc(C(=O)N(Cc3ccc(C(C)C)cc3)C3CCS(=O)(=O)C3)cc(=O)c2cc1Cl (configuration not stated)	-8%	-12%
O=C(NC1CC1)c1cn(-c2ccccc2)nc1-c1ccccc1	15%	36%[activator]
CCN(CC)S(=O)(=O)c1cccc(NC(=O)Cc2ccc(Cl)cc2Cl)c1	101%[activator]	-1%
Cc1ccc(Cl)cc1Nc1sc(C(=O)c2ccc(F)cc2)c(N)c1S(C)(=O)=O	9%	0%
O=C(C1CC1)N(Cc1ccc2c(c1)CN(S(=O)(=O)c1ccc(F)cc1)CCO2)c1ccccc1	0%	-19%
Cc1ccc(-c2cn3nc(N4CCCC(C(=O)NCCc5cccs5)C4)sc3n2)cc1 (configuration not stated)	-3%	140%[activator]
Nn1c(SCc2ncc(-c3ccccc3)o2)nnc1-c1ccccc1Cl	11%	51%[activator]
CCN(CC)CCCNC(=O)c1nn(Cc2ccccc2)c(=O)c2ccccc12	36%[activator]	0%
Cc1nn(-c2ccc(N3CCCC3)nn2)c(C)c1CCC(=O)Nc1ccccc1	5%	22%
C=CCn1c(SCC(=O)c2ccccc2)nc2c1c(=O)[nH]c(=O)n2C	3%	2%
Cc1cc(C(=O)NCC(C)C)ccc1N	5%	20%
Cn1cc(S(=O)(=O)c2ccccc2)c(=O)c2cc(F)c(N3CCCC3)cc21	0%	-3%
CCNC(=O)c1oc2ccccc2c1CSc1nnc(C)s1	14%	29%
CCc1ccc2oc(-c3ccc(NC(=O)c4ccc(OC)cc4)cc3)nc2c1	-9%	0%
CC(NCCC(c1ccccc1)c1ccccc1O)c1ccccc1 (configuration not stated)	2%	-3%
COc1ccc(C(=O)N2CCC(C(=O)N(C)Cc3ccc(C)cc3)CC2)c2ccccc12	1%	-21%

The listing continues:
SMILES	StopGo RLuc	2A firefly
CC(=O)c1ccc(NC(=O)CC2Nc3cccc4cccc(c34)NC2=O)cc1 (configuration not stated)	?	?
Cc1ccc(CNS(=O)(=O)c2ccc(F)c(C(=O)Nc3ccc(C)c(F)c3)c2)cc1	5%	-7%
CN(C)C(=O)c1ccc(S(=O)(=O)NCc2ccccc2Cl)s1	137%[activator]	2%
O=C(Nc1ccccc1-c1ccccc1)c1ccncc1	8%	13%
C#CC1(O)CC(C)N(C)CC1C (configuration not stated)	1%	10%
C=CCn1c(C)cc(C(=O)CSc2nc3ccccc3o2)c1C	-25%	58%[activator]
Cc1ccc(N(C)C(=O)c2cnc(N3CCOCC3)c3ccccc23)cc1C	15%&8%	-2%&0%
COc1ccc(OCC(=O)N(Cc2ccc(C)o2)C2CCS(=O)(=O)C2)cc1 (configuration not stated)	11%	0%
CC(C)C(NC(N)=O)C(=O)Nc1cccc(Cl)c1 (configuration not stated)	3%	-3%
COc1ccc2cnn(CC(=O)Nc3ccc(Cl)cc3)c(=O)c2c1OC	6%	6%

Random excerpt: 2 records from the list.
SMILES	StopGo RLuc	2A firefly
C#CC1(O)CC(C)N(C)CC1C (configuration not stated)	1%	10%
Cc1ccc(N(C)C(=O)c2cnc(N3CCOCC3)c3ccccc23)cc1C	15%&8%	-2%&0%

(continued)
SMILES	StopGo RLuc	2A firefly
Cc1ccc(CN2COc3cc(C)c4c(oc(=O)c5ccccc54)c3C2)cc1	-5%	-4%
COc1cccc(NC(=O)CCc2nnc3n(Cc4ccccc4Cl)c(=O)c4ccccc4n23)c1	2%	7%
COc1ccc(CNC(=O)c2cc(-c3ccc(C)c(C)c3)n[nH]2)cc1	92%[activator]	82%[activator]
COc1ccc(C(CNC(=O)CCc2nc(-c3ccncc3)no2)N2CCCCC2)cc1 (configuration not stated)	-4%	2%
Cc1ccn2c(Nc3ccc(F)cc3)c(-c3ccccn3)nc2c1	-10%	-2%
CCc1cccc(NC(=S)N(CCC(C)C)C(C)c2cccs2)c1 (configuration not stated)	39%[activator]	0%
O=C(OCc1c(Cl)cccc1Cl)c1ccccc1Oc1ccccc1	147%[activator]	12%
O=C(O)C(c1c[nH]c2ccc(Cl)cc12)N1CCN(c2ncc(Br)cn2)CC1 (configuration not stated)	-8%	-4%
COc1cccc(C2CC(=O)Nc3ccsc32)c1OC (configuration not stated)	-7%	-10%
Cc1nn(-c2nc3ccccc3o2)c2c1C(c1ccc(C(F)(F)F)cc1)CC(=O)N2 (configuration not stated)	-15%	15%
Cc1nn(-c2ccccc2)c2sc(C(=O)NC3CCN(Cc4ccccc4)CC3)cc12	-17%	0%
COC(=O)[C@]12C[C@H](CC(=O)N3CCN(C(=O)c4ccco4)CC3)C(=O)N(Cc3ccc(Cl)cc3Cl)C1=C[C@H](C1CCCC1)O[C@@H]2C	?	?
CCCC(=O)NCCc1nc2ccccc2n1Cc1c(F)cccc1Cl	-4%	-12%
COC(=O)c1cc(NS(=O)(=O)c2ccc3c(c2)OCCO3)ccc1Cl	241%[activator]	25%
S=C(NCCC(c1ccccc1)c1ccccc1)Nc1ccc(Cl)c(Cl)c1	-13%	?
O=CN1CCN(C(C(=O)O)c2cn(CC(=O)O)c3ccc(Br)cc23)CC1 (configuration not stated)	-12%	4%
Cc1sc2nc(NCC(C)O)n3nc(-c4ccco4)nc3c2c1C (configuration not stated)	29%	38%[activator]
O=C(CC1C(=O)Nc2nc(SCc3ccccc3)nn21)Nc1ccccc1 (configuration not stated)	-12%	-4%
CCOC(=O)c1ccccc1NC(=O)Cn1c(=O)n(CCC(=O)N2CCc3ccccc3C2)c(=O)c2ccccc21	51%[activator]	-8%
CC1(C)CC(n2c(NCCO)nc3c(c2=O)C2(CCCC2)Cc2ccccc2-3)CCO1 (configuration not stated)	-12%	-13%
COc1ccccc1NC(=O)c1[nH]c(C)c(C(C)=O)c1C	9%	0%
CCCn1c(N2CCN(CC(N)=O)CC2)nc2c1c(=O)[nH]c(=O)n2C	-4%	2%
CC(C)n1nc(C(=O)OCC#N)c2ccccc2c1=O	4%	11%
NS(=O)(=O)c1ccc(N/N=C/c2c(F)cccc2F)c([N+](=O)[O-])c1	-19%	0%
COc1ccc2nc(Nc3nc(C)c(Cc4ccccc4Cl)c(=O)[nH]3)nc(C)c2c1	-3%	2%
CC1CCc2c(c(-c3cccc(O)c3)nc3ccc4ccccc4c23)C1 (configuration not stated)	-14%	9%
O=S(=O)(c1ccccc1F)N1CCN(Cc2cccc3cccnc23)CC1	-17%	-15%
Cc1cccc(C(=O)N2CCN(Cc3nc(N)c4ccccc4n3)CC2)c1C	-3%	-3%
N#Cc1nc(-c2cccc3ccccc23)oc1N1CCC(C(N)=O)CC1	-3%	13%
N#Cc1c(C(F)(F)F)cc(-c2cccs2)nc1SCC(=O)Nc1ccccc1F	-13%	-19%
Cc1ccc(NC(=O)/C(C#N)=C/c2ccc(C)o2)cc1	6%	183%[activator]
CC(C)C(=NNC(=O)c1ccc(Br)cc1)C(C)C	28%	147%[activator]
Cc1ccc(-n2nc(C)c3c2NC(=O)CSC3c2ccc(F)cc2)cc1Cl (configuration not stated)	-16%	23%
CC(Oc1ccccc1)C(=O)Nc1ccc(C(=O)OCc2cc(=O)n3nc(C(C)C)sc3n2)cc1 (configuration not stated)	-6%&-5%	1%&12%
CC(=O)Nc1ccc(S(=O)(=O)NC(c2ccc(F)cc2)c2cccs2)cc1 (configuration not stated)	48%[activator]	-28%
COc1ccc2occ(CC(=O)Nc3ccc(S(=O)(=O)Nc4nccc(C)n4)cc3)c2c1	21%	-8%
Cc1ccc(Cl)c(Nc2ccccc2C(=O)O)c1Cl	8%	8%[11.5 µM]
O=S(=O)(Nc1ccc(-c2ccc(N3CCCCCC3)nn2)cc1)c1ccc(C(F)(F)F)cc1	57%[activator]	62%[activator]
FC(F)(F)c1ccc(Cl)c(N/N=C/c2ccc(Br)cc2)c1	19%	23%
COc1ccccc1CNC(=O)c1ccc(N2CCCC2)c(NC(=O)NCCC(C)C)c1	-13%	0%
Cc1ccc(NC(=O)C2CCCN2S(=O)(=O)c2cccc3nsnc23)c(C)c1 (configuration not stated)	33%[activator]	-12%
O=S(=O)(Nc1ccc2oc3ccccc3c2c1)c1cccs1	131%[activator]	0%

Compounds shown so far that contain a thiophene ring, fused or not:
SMILES	StopGo RLuc	2A firefly
O=C(Nc1cccc(F)c1)N1CCN(Cc2ccc(Cl)s2)CC1	-13%	38%[activator]
O=C(NCc1ccccn1)c1ccsc1	-12%	3%
Cc1ccc(Cl)cc1Nc1sc(C(=O)c2ccc(F)cc2)c(N)c1S(C)(=O)=O	9%	0%
Cc1ccc(-c2cn3nc(N4CCCC(C(=O)NCCc5cccs5)C4)sc3n2)cc1 (configuration not stated)	-3%	140%[activator]
CN(C)C(=O)c1ccc(S(=O)(=O)NCc2ccccc2Cl)s1	137%[activator]	2%
CCc1cccc(NC(=S)N(CCC(C)C)C(C)c2cccs2)c1 (configuration not stated)	39%[activator]	0%
COc1cccc(C2CC(=O)Nc3ccsc32)c1OC (configuration not stated)	-7%	-10%
Cc1nn(-c2ccccc2)c2sc(C(=O)NC3CCN(Cc4ccccc4)CC3)cc12	-17%	0%
Cc1sc2nc(NCC(C)O)n3nc(-c4ccco4)nc3c2c1C (configuration not stated)	29%	38%[activator]
N#Cc1c(C(F)(F)F)cc(-c2cccs2)nc1SCC(=O)Nc1ccccc1F	-13%	-19%
CC(=O)Nc1ccc(S(=O)(=O)NC(c2ccc(F)cc2)c2cccs2)cc1 (configuration not stated)	48%[activator]	-28%
O=S(=O)(Nc1ccc2oc3ccccc3c2c1)c1cccs1	131%[activator]	0%

Bioassay records as filed in PubChem BioAssay.

Only part of the results is shown. The share of hits here may be higher or lower than overall.
